# Screening results as filed in PubChem.
# VDR inh: inhibitors of human vitamin D receptor | VDR-SRC2-3 peptide fluorescence polarization, 2 h | Potency, µM, without a hit: max response, negative = inhibition, hits mostly inhibitors | AID 504847 | hit rate 0.93% among 400,000; active means well fitted inhibition curve with a large enough effect; inconclusive means small, poorly fitted or top-dose-only effect, or another doubt; inactive means no such curve, though single readings can be large or run the other way; further: series mostly up to about 120 µM
# Target sequence (P11473 whole entry, looked up): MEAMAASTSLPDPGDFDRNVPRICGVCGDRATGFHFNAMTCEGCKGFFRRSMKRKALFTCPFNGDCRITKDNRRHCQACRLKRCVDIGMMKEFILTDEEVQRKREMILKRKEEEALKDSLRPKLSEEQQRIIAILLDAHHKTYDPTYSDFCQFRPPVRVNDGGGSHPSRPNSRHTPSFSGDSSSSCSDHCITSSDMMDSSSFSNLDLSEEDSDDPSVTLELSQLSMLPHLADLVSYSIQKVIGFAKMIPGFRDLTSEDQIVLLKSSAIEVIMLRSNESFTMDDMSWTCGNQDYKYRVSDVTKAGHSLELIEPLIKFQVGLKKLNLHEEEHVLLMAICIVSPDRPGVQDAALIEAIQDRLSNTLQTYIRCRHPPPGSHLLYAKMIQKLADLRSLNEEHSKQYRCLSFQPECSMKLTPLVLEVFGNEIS
#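 VDR–SRC2-3 interaction, FP format. Cmpds 23 nl via pintool, brief spin, 2 h ambient incubation.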
# Starred values were filed as active, the others as inactive; ? = inconclusive; & = joins results of further samples; [ ] = dose if it differs, or a comment. On the % scale 0 is the no-effect control and ±100 the full control effect; potency means the concentration at half of the fitted maximal effect. Only part of the results is shown; rates above refer to the full screens.
# Start of the listing, in advance (14 entries):
Compound,VDR inh
ClCCN1CCSCC1,-0.8%
O=C1NC(=O)N(c2ccc3c(c2)OCO3)C(=O)/C1=C/c1ccc(N2CCCC2)o1,7.6%
CN1CCC2(CC1)NC(=O)c1ccccc1N2,-8.2%
Cc1nn(Cc2ccccc2)c(Cl)c1C(=O)O,13.2%
CCN1CCN(c2ncnc3ccc(Br)cc23)CC1,-14.3%
C=CP(=O)(O)c1ccccc1,5.7%
O=c1c(C=NCc2cccs2)c(O)n(C2CCCCC2)c(=O)n1C1CCCCC1,-14.9%
O=C(CNC(=O)OCc1ccccc1)Nc1ccc(Br)cc1C(=O)c1ccccc1Cl,-9.5%
COc1cc(C[C@@H](C)N)c(OC)cc1I,-3.1%
CC(C)CN1CCC2(CC1)CCN(S(C)(=O)=O)CC2,4.2%
Cc1ccc(-n2c(/C=C/c3ccccn3)nc3ccccc3c2=O)cc1,-8.4%
COC(=O)C1=C(c2ccccc2)C[C@@H]2CC[C@H]1N2C(=O)NCc1cccc2ccccc12,-10.5%
CC1=C(O)C(=O)[C@@H]2O[C@@H]2C1=O,?
CC(=O)OC1CCC2(C)C3=C(CCC2C1(C)C)[C@@]1(C)CCC(C(C)CCC=C(C)C)[C@@]1(C)CC3 (stereo not given in full),?

# The listing, from the start:
Compound,VDR inh
ClCCN1CCSCC1,-0.8%
O=C1NC(=O)N(c2ccc3c(c2)OCO3)C(=O)/C1=C/c1ccc(N2CCCC2)o1,7.6%
CN1CCC2(CC1)NC(=O)c1ccccc1N2,-8.2%
Cc1nn(Cc2ccccc2)c(Cl)c1C(=O)O,13.2%
CCN1CCN(c2ncnc3ccc(Br)cc23)CC1,-14.3%
C=CP(=O)(O)c1ccccc1,5.7%
O=c1c(C=NCc2cccs2)c(O)n(C2CCCCC2)c(=O)n1C1CCCCC1,-14.9%
O=C(CNC(=O)OCc1ccccc1)Nc1ccc(Br)cc1C(=O)c1ccccc1Cl,-9.5%
COc1cc(C[C@@H](C)N)c(OC)cc1I,-3.1%
CC(C)CN1CCC2(CC1)CCN(S(C)(=O)=O)CC2,4.2%
Cc1ccc(-n2c(/C=C/c3ccccn3)nc3ccccc3c2=O)cc1,-8.4%
COC(=O)C1=C(c2ccccc2)C[C@@H]2CC[C@H]1N2C(=O)NCc1cccc2ccccc12,-10.5%
CC1=C(O)C(=O)[C@@H]2O[C@@H]2C1=O,?
CC(=O)OC1CCC2(C)C3=C(CCC2C1(C)C)[C@@]1(C)CCC(C(C)CCC=C(C)C)[C@@]1(C)CC3 (stereo not given in full),?
C/C(=N/OC(=O)N(C)C)c1ncc(C(F)(F)F)cc1N1CCOCC1,11.0%
COc1ccc2[nH]cc(CCN=C(N)N)c2c1,1.8%
c1cc(CN2CC3(CCNCC3)C2)ccn1,-15.5%
Cc1ccc(C(c2nnnn2Cc2ccccc2)N2CC=C(c3ccc(F)cc3)CC2)cc1 (stereo not given),2.2%
C=CCn1c(O)c(C(C)=NCCCO)c(=O)[nH]c1=O,-6.0%
O=C(Cn1cc(C(=O)c2ccccc2)c2ccccc21)Nc1ccc(Br)cc1,-5.8%
Cc1cc(C(=O)CS(=O)c2ccc(F)cc2)cc(C)c1OC(=O)N(C)C (stereo not given),-26.6%
Oc1ccc2c3c1O[C@H]1c4[nH]c5c(c4C[C@@]4(O)[C@@H](C2)N(CC2CC2)CC[C@]314)C[C@@]1(O)[C@H]2Cc3ccc(O)c4c3[C@@]1(CCN2CC1CC1)[C@H]5O4,-2.0%&-2.4%
C=CCN(C1=NCCN1)c1c(Cl)cccc1Cl,10.2%&6.0%&-1.9%
COc1ccccc1CCNC1CCC(C)CC1 (stereo not given),-4.1%
CC1(C)N(O)C2CCCCC2N1O (stereo not given),7.8%
Cc1cc2oc(=O)cc(-c3cc4ccccc4o3)c2cc1OC(=O)N(C)C,-11.4%
O=c1[nH]c(Cl)ccc1CN1CCOCC1,-12.5%
[O-][n+]1onc2c1CCC1N(O)CCC21O (stereo not given),3.5%
CCN(CC)CCOC(=O)c1ccc(N=Cc2c(O)[nH]c(=O)[nH]c2=O)cc1,?
C[C@@]12CC(=O)[C@H]3[C@@H](CCC4=CC(=O)CC[C@]43C)[C@H]1CCC2=O,-1.8%
CCCCn1c(O)c(/C=C2/C=CC=N2)c(=O)[nH]c1=O,25.6%
CCOC(=O)c1c(C=O)c2ccccc2n1Cc1ccccc1,4.3%
Cc1ccc(CN2CCCC(C(=O)c3cccc(C(F)(F)F)c3)C2)o1 (stereo not given),4.1%
C[C@]12CC[C@@H](O)CC1=CCC1C2CC[C@@]2(C)C1C[C@@H](F)[C@H]2O (stereo not given in full),-16.8%
CCCCCCCCCCCCCCCCOC[C@@H](O)COP(=O)([O-])OCC[N+](C)(C)C,4.5%&-0.8%
O=c1n(Cl)c(=O)n(Cl)c(=O)n1Cl,1.7%
CCCN(CCC)[C@@H]1CCc2cccc(O)c2C1,-4.2%&-7.4%&1.2%
CCCOc1ccccc1C1SCC(=O)Nc2c1c(=O)[nH]n2C(C)CCC (stereo not given),10.3%
Cc1ccccc1N1C(=O)NC(=O)/C(=C\c2cnn(-c3ccccc3)c2)C1=O,50.1µM*
C=C[C@@H]1C[C@@]1(C)[C@@H](NP(=O)(c1ccccc1)c1ccccc1)c1ccccc1,0.8%
O=C(c1ccc(F)cc1)C(Cc1ccccc1)N1CCCCC1 (stereo not given),-3.2%
C=C[C@H]1CN2CC[C@H]1C[C@H]2c1[nH]c2ccccc2c1CCO,-1.1%
CC(C)(C)C(O)C(Oc1ccc(-c2ccccc2)cc1)n1cncn1 (stereo not given),-12.0%
CSC1=NP(=S)(SC)N2CCCC2=C1C#N (stereo not given),6.7%
C/C(=C/CCC(C)[C@H]1CC[C@@]2(C)C3=C(CC[C@]12C)[C@@]1(C)CCC(=O)C(C)(C)[C@@H]1CC3)C(=O)O (stereo not given in full),?
N#CC1=C(N)Oc2cc(O)ccc2C1c1ccc2c(c1)OCO2 (stereo not given),23.4%
CCCCCn1c(N)c(C(=O)NCc2cccs2)c2nc3ccccc3nc21,?
N[C@H](CO)Cc1ccccc1,15.0%

# The results go on.
Molecule | VDR inh
CCOC(=O)C1C(OC(=O)c2ccccc2)CC2CCC1N2C (stereo not given) | -9.9%
COc1cc2c(cc1OC)-c1c(OC)c(OC)c(OC)c3ccnc(c13)C2=O | -13.3%
COc1ccc2c(c1)c(CCN)c(C)n2Cc1ccccc1 | 13.0%
Cc1ccc(C(=O)NC2CC3CCC(C2)N3)cc1 (stereo not given) | -21.1%
O=C(c1ccc2c(c1)N(Cc1ccc(F)cc1)CCS2)N1CCC2(CC1)OCCO2 | 7.8%
NC(C(=O)O)c1cc(=O)[nH]o1 (stereo not given) | -3.8%&6.4%
COc1ccc(-[n+]2c(-c3ccccc3)cc(-c3ccccc3)cc2-c2ccccc2)cc1 | 16.2%
COc1ccc(S(=O)(=O)NC(CC(=O)N2CCC3(CC2)OCCO3)c2ccco2)cc1 (stereo not given) | 2.1%
O=[N+]([O-])c1ccc(N2CCCC2)c(F)c1Br | 6.9%
CS(=O)(=O)N1Cc2cnnn2-c2ccccc2C1C#N (stereo not given) | -2.7%
CC(C)[N+]12CCC(CC1)C(C(O)(c1ccccc1)c1ccccc1)C2 (stereo not given) | -9.9%
O=C(CNC(=O)OCc1ccccc1)NCC(=O)Nc1ccc(Br)cc1C(=O)c1ccccc1 | -3.1%
CC(C)c1ccc(N2C(=O)NC(=O)/C(=C\C=C\c3ccco3)C2=O)cc1 | 37.0%[activator]
O=C(c1csc2c1CCCCC2)N1CCC2(CC1)OCCO2 | 3.9%
COC(=O)C1=C(c2ccc(S(C)(=O)=O)cc2)C[C@@H]2CC[C@H]1N2C(=O)NCc1ccc(C(F)(F)F)cc1 | 8.3%
COc1ccc2c(c1OC)CN1CCc3cc4c(cc3C1C2)OCO4 (stereo not given) | 4.1%
CC(C)(C)P(=O)(N1CCOCC1)N1CCOCC1 | -2.0%
CN1CSC(=S)N(C)C1 | -19.6%
Cc1ccc(S(=O)(=O)NC(Cc2cnc[nH]2)C(=O)O)cc1 (stereo not given) | ?
C/C(O)=C(\C#N)C(=O)Nc1cc(Br)ccc1Br | -20.9%&4.0%
CC12CN3CCN(C1)CC(C)(C3)C2=NO | 1.3%
O=C1CC(O)(CF)CCO1 (stereo not given) | 0.8%
COc1cc(/C=C2\C(=O)NC(=O)N(c3ccccc3)C2=O)cc(OC)c1OC | ?
CC(=NCCCN1CCCCC1)c1c(O)n(Cc2ccccc2)c(=O)[nH]c1=O | 37.4%[activator]
Nc1ccccc1C(=O)OCc1ccc([N+](=O)[O-])cc1 | 5.7%
CCCNC(=O)Cn1cnc2sc(C(=O)N3CCC4(CC3)OCCO4)c(C)c2c1=O | -7.8%
CCOC(=O)[C@]12Cc3ccsc3[C@H]1N(Cc1ccccc1)C(=O)c1ccccc12 | -22.3%
COC(=O)C1=C(c2cc3ccccc3o2)C[C@@H]2CC[C@H]1N2C(=O)N1CCCCC1 | 1.8%
Cc1cc(/C=C2\C(=O)NC(=O)N(Cc3ccccc3)C2=O)c(C)n1-c1ccc(Cl)c(C(=O)O)c1 | -1.0%
O=C(CCCn1c(=O)[nH]c2cc(Cl)ccc2c1=O)N1CCC2(CC1)OCCO2 | ?
CC12C=CC(=O)CC1CCC1C2CCC2(C)C(O)C(O)CC12 (stereo not given) | -10.1%
Cc1ccc(N2C(=O)NC(=O)/C(=C\c3cccn3C(C)(C)C)C2=O)cc1 | -8.4%
CC(=O)[C@H]1CC[C@H]2C3CC[C@H]4C[C@H](O)CC[C@]4(C)C3CC[C@]12C (stereo not given in full) | -5.0%
O=C(c1cccs1)c1cn(Cc2ccccc2Cl)c2ccccc12 | 7.3%
CCCNC(=O)c1c(N)n(Cc2ccco2)c2nc3ccccc3nc12 | ?
CC(C)n1c(=O)c(C=Nc2cccc([N+](=O)[O-])c2)c(O)n(CCc2ccccc2)c1=O | -27.4%
COc1ccccc1N1CCN(Cc2cnc(-c3ccccc3)[nH]2)CC1 | -6.2%
CCCCC/C(=N\O)c1c[nH]c2ccccc12 | -0.9%
C=CCn1c(O)c(C(CC)=NCCN2CCN(C(=S)NC)CC2)c(=O)[nH]c1=O | 6.4%
CN1CCN(c2ncnc3nc[nH]c23)CC1 | -11.2%
C[C@]12Cc3nonc3C[C@@H]1CC[C@@H]1[C@@H]2CC[C@@]2(C)[C@H]1CC[C@]2(C)O | -2.9%
Cc1ccc(-c2cc(-c3ccccc3)cc(-c3ccccc3)[n+]2-c2ccccc2)cc1 | -17.9%
CCN(CC)c1ccc(N=Cc2c(O)[nH]c(=O)[nH]c2=O)cc1 | 79.4µM*
CC(N)Cc1ccc(O)cc1 (stereo not given) | -0.2%
CN(C)c1ccc([N+](=O)[O-])c([N+](=O)[O-])c1 | -13.7%
CCOC(=O)C1=C(N)OC(C)=C(C(=O)OCCOC)C12C(=O)Nc1ccccc12 (stereo not given) | 19.7%
CN(C)/C=C(\C=[N+](C)C)c1[nH]ncc1[N+](=O)[O-] | 19.2%
O=[N+]([O-])c1cc(S(=O)(=O)c2ccc(O)c([N+](=O)[O-])c2)ccc1O | -12.9%
Cc1cc(/C=C2\C(=O)NC(=O)N(c3ccccc3F)C2=O)c(C)n1-c1cc(C(=O)O)cc(C(=O)O)c1 | -29.0%
O=C(Cn1cc(C(=O)c2ccccc2F)c2ccccc21)NCc1ccco1 | 17.6%

# (more compounds)
Molecule | VDR inh
O=C(c1ccc(C(F)(F)F)cc1)C1CCCN(Cc2ccc(CO)o2)C1 (stereo not given) | -1.6%
CC(C)N1CC=C(c2c[nH]c3ccccc23)CC1 | -1.9%
COc1cccc(CNCCc2c[nH]c3ccccc23)c1 | 13.1%
Cc1ccc(OCC(=O)N2CCN(CCc3ccncc3)CC2)cc1C | 7.7%
CN(C)[C@@H]1C(=O)C(C(N)=O)=C(O)[C@@]2(O)C(=O)C3=C(O)c4c(O)ccc(Cl)c4[C@@](C)(O)C3C[C@@H]12 (stereo not given in full) | -10.2%
O=C(Cn1ncc2c3ccccc3n(Cc3cccc(Cl)c3)c2c1=O)N1CCC2(CC1)OCCO2 | -7.9%
C=CCCC1(CC(C)C)C(=O)NC(=S)NC1=O | -11.1%
CN(C)C(=O)OCc1n(C)cc[n+]1C | -26.3%
COC(=O)C(O)(c1ccc(NC(=S)NC(=O)c2ccc(Cl)cc2Cl)c(C)c1)C(F)(F)F (stereo not given) | ?
COC(=O)C1=C(c2ccc(OC)c(OC)c2)C[C@@H]2CC[C@H]1N2C(=O)NCCNC(C)=O | -0.7%
COC(=O)c1c(N)n(Cc2ccc(OC)cc2)c2nc3ccccc3nc12 | 17.1%
COc1ccc(CC(=O)Nc2ccc3c(C(F)(F)F)cc(=O)oc3c2)cc1OC | -0.1%
CCOc1ccc2nc(NC(=O)c3cccn(Cc4ccc(C)cc4)c3=O)sc2c1 | 12.3%
CC1C(c2cccs2)=[N+]([O-])C(C)(C(=O)c2ccc(F)cc2)N1O (stereo not given) | 25.8%
NC(=O)Cn1cc(C(=O)c2ccccc2)c2ccccc21 | 4.8%
CCOP(=O)(OCC)Oc1cc(C)c(N(C)C)c(C)c1 | -1.6%
CC(=O)C1CCC2(O)C3CCC4=CC(=O)CCC4(C)C3CCC12C (stereo not given) | -18.1%
CC1CCC(NCC(O)c2ccccc2)CC1 (stereo not given) | -14.4%
COC(=O)C1=C(c2ccc(F)cc2OCc2ccccc2)C[C@@H]2CC[C@H]1N2C(=O)NCc1cccc(C(F)(F)F)c1 | -12.7%
CC12CN3CCN(CC(C3)/C1=N/NC(N)=O)C2 | -1.0%
C=CCN1CCC2(C)c3cc(O)ccc3C[C@H]1[C@H]2C | -0.8%
C=CCn1c(O)c(C(C)=Nc2ccc(N(CC)CC)cc2)c(=O)[nH]c1=O | ?
C[C@@]12CCC(OS(=O)(=O)O)C[C@@H]1CCC1C2CC[C@]2(C)C(=O)CCC12 (stereo not given in full) | -14.1%

# Shown with each value named: part of the list above.
Compound: NC(=O)Cn1cc(C(=O)c2ccccc2)c2ccccc21
  VDR inh: 4.8%
Compound: CCOP(=O)(OCC)Oc1cc(C)c(N(C)C)c(C)c1
  VDR inh: -1.6%
